Compound activity as filed in PubChem BioAssay.
PI5P4Ka inh: qHTS for Inhibitors of phosphatidylinositol 5-phosphate 4-kinase (PI5P4K); Phosphatidylinositol 5-phosphate 4-kinase type-2 alpha (Homo sapiens), P48426; PI5P4Kalpha enzyme, ADP-Glo luminescence, 60 min; hits give low values; max response, %; hit rate 1.2% among 330,000; active = max response of -50% or lower; inconclusive = between -30% and -50%; inactive = -30% or higher; note: value at the top dose of about 77 µM; % is set by controls: 0 for no effect and ±100 for the full control effect
Target sequence (P48426 whole entry, looked up): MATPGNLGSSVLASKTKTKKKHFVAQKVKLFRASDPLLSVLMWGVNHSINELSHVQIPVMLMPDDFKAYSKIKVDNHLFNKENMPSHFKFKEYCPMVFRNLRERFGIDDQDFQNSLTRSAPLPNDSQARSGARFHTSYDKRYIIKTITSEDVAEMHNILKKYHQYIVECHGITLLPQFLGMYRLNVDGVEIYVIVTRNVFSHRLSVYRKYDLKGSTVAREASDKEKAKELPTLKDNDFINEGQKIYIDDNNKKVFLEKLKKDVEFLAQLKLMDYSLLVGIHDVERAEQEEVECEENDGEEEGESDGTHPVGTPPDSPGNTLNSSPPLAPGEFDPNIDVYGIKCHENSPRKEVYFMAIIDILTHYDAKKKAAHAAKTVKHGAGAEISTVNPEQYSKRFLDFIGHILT
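Enzyme plus substrate dispensed, test compounds pinned in, then ATP (5 microM final) added. After 60 min at RT, ADP-Glo reagent 1 for 45 min and reagent 2 for 30 min preceded luminescence imaging.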
IL2 activator: qHTS of IL-2 Activators; hit rate 0.065% among 360,000; activation, % (series mostly up to about 46 µM); IL-2 activation reporter assay, cell-based qHTS; stimulated with anti-CD3/CD4/CD28 beads; in transgenic mouse T cells; in the data active = activation above about 50%; inconclusive = mostly about 30% to 49%; note: 0% is about no effect
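Readout: EGFP and DsRed signals by fluorescent plate cytometry. Unstimulated transgenic mouse T cells received compound 60 min before antibody-bead stimulation, then incubated 18 h at 37 degrees C.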
EPAC1 ag: qHTS for Agonist of cAMP-regulated guanine nucleotide exchange factor 3 (EPAC1): primary screen; Rap guanine nucleotide exchange factor 3 (Homo sapiens), O95398; EPAC1 agonist qHTS, biochemical assay; response scale: 100% = response to 6.5 mM cAMP; Potency, µM (top dose mostly 154 µM), for inactives: at the highest dose activation, actives largely listed as activators; hit rate 0.073% among 360,000; note: potency is the fitted concentration of half-maximal effect; nearly all actives have a fitted effect of over 60% in size
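Compounds were pinned as a concentration titration into mixtures of EPAC1 (100 nM), BODIPY-GDP-loaded Rap1B (250 nM) and GDP (50 uM). After 5 min at room temperature, fluorescence was followed for 30 min; activity was scaled to 6.5 mM cAMP.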
Abeta rescue: qHTS for compounds that reverse cellular toxicity of Amyloid beta (A-beta) peptide in yeast: Primary Screen; yeast expressing A-beta42, growth rescue, OD600, 48 h; response scale: 0% DMSO, 100% iron-clioquinol control; hit rate 0.063% among 410,000; AID 1347071, 2019; Potency, µM (top dose mostly 46.1 µM), for inactives: at the top dose growth rescue, hits mostly activators; note: potency is the fitted concentration of half-maximal effect; nearly all actives have a fitted effect of over 55% in size
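Yeast growth medium received pinned compounds, then yeast cells expressing toxic A-beta were added; plates incubated at 30 C for 48 hr. Growth read as absorbance at 600 nm, normalized to DMSO and equimolar FeCl3 plus clioquinol controls.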
PLK1 PBD block: qHTS for Inhibitors of PLK1-PDB (polo-like kinase 1 - polo-box domain): Primary Screen. Potency, µM, without a hit: max response, negative = inhibition, hits mostly inhibitors. AID 720504, 2013. Plk1 PBD binding of FITC phosphopeptide, fluorescence polarization. hit rate 2.8% among 360,000. Serine/threonine-protein kinase PLK1 (Homo sapiens), P53350; note: potency is the fitted concentration of half-maximal effect; series mostly up to about 57 µM; % is set by controls: 0 for no effect and ±100 for the full control effect; nearly all actives have a fitted effect of over 65% in size
Target sequence (P53350 whole entry, looked up, the tested form may be a part): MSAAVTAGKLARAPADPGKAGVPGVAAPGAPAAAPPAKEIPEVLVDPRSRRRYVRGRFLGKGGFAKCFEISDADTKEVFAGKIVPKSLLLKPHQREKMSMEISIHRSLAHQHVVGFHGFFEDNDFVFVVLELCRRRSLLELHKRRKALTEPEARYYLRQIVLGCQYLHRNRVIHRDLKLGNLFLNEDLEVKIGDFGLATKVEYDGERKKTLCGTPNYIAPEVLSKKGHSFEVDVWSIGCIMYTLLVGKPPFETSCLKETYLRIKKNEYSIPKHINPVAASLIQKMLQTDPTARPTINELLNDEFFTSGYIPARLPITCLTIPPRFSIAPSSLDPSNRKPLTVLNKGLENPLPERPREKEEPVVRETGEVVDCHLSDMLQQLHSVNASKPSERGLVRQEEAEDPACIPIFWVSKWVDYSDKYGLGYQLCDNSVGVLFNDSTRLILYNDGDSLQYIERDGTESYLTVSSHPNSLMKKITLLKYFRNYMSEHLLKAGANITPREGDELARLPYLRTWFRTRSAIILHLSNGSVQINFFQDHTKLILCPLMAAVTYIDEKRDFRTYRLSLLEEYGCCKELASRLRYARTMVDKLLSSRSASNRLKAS
EPAC1 antagonist: qHTS for Antagonist of cAMP-regulated guanine nucleotide exchange factor 3 (EPAC1): primary screen; EPAC1 GEF assay, Rap1b-BODIPY-GDP exchange fluorescence; Potency, µM (titrated, usually from 115 µM), for inactives: at the top dose activity change, negative = inhibition, usual class: inhibitors; hit rate 0.14% among 360,000;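 note: potency is the fitted concentration of half-maximal effect; plate controls were vehicle for no effect and positive control for full effect; nearly all actives have a fitted effect of over 50% in size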
FUS suppressor: qHTS for Suppressors of FUS Proteinopathy: Primary screen using FUS-linked yeast assay | Potency, µM (doses to about 76.6 µM), for inactives: top-dose growth rescue (activation), usual class: activators | hit rate 0.24% among 390,000 | S. cerevisiae FUS-expressing, growth rescue, OD600, 24 h;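 note: potency is the fitted concentration of half-maximal effect; plate controls were DMSO vehicle for no effect and reference control for full effect; nearly all actives have a fitted effect of over 55% in size; some results filed as inactive show a strong effect at the top dose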
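S. cerevisiae expressing FUS from galactose induction served as the toxicity model. Growth after 24hr at 30C, read as absorbance at 600 nm, indicates suppression of toxicity; compounds dosed at several concentrations.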
Numbers without * were called inactive; ? = inconclusive; . = not tested or not shown; [ ] = another dose, or the depositor's remark. Unless noted, calls come from the whole dose curve; as a rule, active = well fitted curve in the direction sought with a large enough effect; inconclusive = small, poorly fitted or top-dose-only effect, or another doubt; inactive = no such curve, though single readings can be large; an effect the other way counts as inactive or inconclusive. Not all compounds are listed; count on the stated rates, not on these rows.

SMILES | PI5P4Ka inh | IL2 activator | EPAC1 ag | Abeta rescue | PLK1 PBD block | EPAC1 antagonist | FUS suppressor
CC(=O)OCC1=C(C(=O)O)N2C(=O)C(NC(=O)CC(C)c3ccccc3)C2SC1 (stereo unspecified) | 8 | 1.5 | -4% | 5% | -15% | -10% | 0%
Cc1c(CNC(=O)c2cnn3c2NC(c2ccc(Br)cc2)CC3C(F)(F)F)cnn1C (stereo unspecified) | -1 | -0.1 | -12% | 6% | 1% | -2% | 6%
COc1cccc(Nc2nc(N)c([N+](=O)[O-])c(NCc3ccco3)n2)c1 | ? | -0.3 | 10% | 21% | -2% | -7% | 37%
CCC(C)N1CCCCC1C(=O)Nc1c(C)cc(C)cc1C (stereo unspecified) | . | -1.5 | -10% | 15% | 1% | 12% | 18%
CCOC(=O)N/N=C/C=C/c1ccccc1[N+](=O)[O-] | -23 | -2.4 | 13% | 11% | 21µM* | 7% | -10%
Cc1nn(C)c(C)c1S(=O)(=O)N1CCC(CO)(CC2CCCCO2)CC1 (stereo unspecified) | 3 | 0.3 | 12% | -2% | -5% | 12% | -7%
Cc1cc(C)c2c(CC(=O)N3CCCC3)coc2c1 | 0 | 0.5 | -3% | -11% | -3% | -4% | -3%
Cc1ccc(NC(=O)CSCC(=O)OCc2cc(=O)oc3cc(O)ccc23)c(C)c1 | -13 | 0.4 | 10% | -4% | -10% | -22% | -5%
CN(CC(=O)Nc1ccccc1Cl)C1CCCCC1 | 1 | -0.7 | 1% | 5% | ? | -14% | 9%
COc1ccc(CCNC(=O)c2nnc(CS(=O)(=O)c3ccccc3)o2)cc1OC | -2 | -1.2 | -1% | 3% | -5% | -7% | 14%
COc1cc(-c2cc(NC=O)c3ncc(-c4ccc(C(C)=O)cc4)n3c2)ccc1O | -61* | 1.4 | -18% | 11% | -9% | -8% | ?
Cc1cc(C)c(NC(=O)C2CCCN2CCOC(=O)c2ccccc2)c(C)c1 (stereo unspecified) | -7 | 0.0 | -9% | 12% | -1% | 12% | -13%
NS(=O)(=O)c1cccnc1Nc1cccc(Cl)c1Cl | 16 | -1.6 | -5% | -15% | -5% | -10% | 22%
CN1CCN(c2ccc(-c3cc(NC=O)c4ncc(-c5ccc(F)cc5)n4c3)cc2)CC1 | ? | -0.4 | -1% | -21% | -13% | -8% | 23%
CC(=O)NS(=O)(=O)c1cccnc1Nc1ccc(Cl)cc1 | ? | -1.4 | 3% | 9% | 11µM* | -5% | -4%
Cc1ccc(CCNC(=O)c2nnc(CS(=O)(=O)c3ccccc3)o2)cc1 | 3 | -1.5 | 12% | 2% | 2% | 8% | ?
CSCCC(Nc1ccc(S(=O)(=O)N2CCOCC2)cc1[N+](=O)[O-])C(=O)OCC(=O)NCC(C)C (stereo unspecified) | 4 | 0.3 | -8% | -10% | 1% | -6% | .
CC(=O)c1ccc(N2CCN(C(=O)COc3ccc4ccccc4c3)CC2)cc1 | -3 | 0.4 | 8% | 7% | -5% | -9% | -45%
COc1ccc(-c2cnc3c(NC(C)=O)cc(-c4ccc(C(=O)NC5CC5)cc4)cn23)cc1OC | -16 | -0.4 | 5% | -6% | -7% | -1% | 29%
CCOC(=O)c1c(NC2OC(=O)c3c2ccc(OC)c3OC)sc(C(=O)OC(C)(C)C)c1C (stereo unspecified) | 19 | -4.1 | 11% | -9% | 24µM* | -17% | 27%

By substructure, those above containing a furan ring, fused or not (2)
SMILES | PI5P4Ka inh | IL2 activator | EPAC1 ag | Abeta rescue | PLK1 PBD block | EPAC1 antagonist | FUS suppressor
COc1cccc(Nc2nc(N)c([N+](=O)[O-])c(NCc3ccco3)n2)c1 | ? | -0.3 | 10% | 21% | -2% | -7% | 37%
Cc1cc(C)c2c(CC(=O)N3CCCC3)coc2c1 | 0 | 0.5 | -3% | -11% | -3% | -4% | -3%

Going on with the list:
SMILES | PI5P4Ka inh | IL2 activator | EPAC1 ag | Abeta rescue | PLK1 PBD block | EPAC1 antagonist | FUS suppressor
COc1ccc2c3n([n+]([O-])c2c1)CCN=C3c1ccc(Cl)cc1 | -2 | -0.1 | 5% | -12% | -9% | 4% | 2%
COc1ccc(Nc2cnn(-c3nc4ccccc4s3)c(=O)c2Cl)cc1 | -7 | -5.6 | -1% | -47%[inhibitor] | 12µM* | -11% | .
CCn1c(CNc2nc(-c3ccccc3)cs2)nnc1SCC(=O)NCc1ccco1 | -23 | -6.2 | -3% | -9% | ? | 9% | .
CCS(=O)(=O)N1CCC(N2CCN(c3ccccc3)CC2)CC1 | 1 | 2.1 | 3% | 10% | -6% | -1% | -15%
COc1ccc(-c2cc(-c3n[nH]c(=S)n3-c3cc(OC)ccc3OC)[nH]n2)cc1 | -30 | 1.3 | -9% | 12% | -25% | -14% | .
O=C(Nc1ccc(F)cc1F)c1noc2c1CCC2 | . | -2.9 | -4% | 9% | ? | -3% | 9%
O=C(NCc1ccco1)c1cnn2c1NC(c1ccc(Br)cc1)CC2C(F)(F)F (stereo unspecified) | ? | -0.3 | 7% | -4% | 3µM* | -24% | ?
CC(=O)c1cccc(S(=O)(=O)NC2CCSc3ccccc32)c1 (stereo unspecified) | -22 | -4.2 | -5% | -12% | 27µM* | 33%[activator] | -2%
CN(Cc1ccccc1)C(=O)c1ccc(Nc2nc(CN)cs2)nc1 | -4 | -0.1 | 8% | 6% | -23% | 9% | -8%
C=CCc1cc(Cl)ccc1OCCOCCN(C)C | 32 | -2.1 | 1% | 3% | 1% | 0% | 1%
O=C(CSc1ccc(Cl)cc1)NNC(=O)c1ccco1 | -1 | 2.4 | 13% | 24% | -8% | 3% | -5%
Cc1cc(C)c(NC(=O)C2CCCN2CCOC(=O)c2cccc([N+](=O)[O-])c2)c(C)c1 (stereo unspecified) | -6 | -3.7 | 5% | -8% | -11% | -7% | 15%
COC(=O)[C@@H]1CC[C@@](C)(c2ccc(OC)cc2)C1(C)C | 14 | -0.6 | -6% | -2% | 6% | 0% | -24%
COc1ccc(/C=N/NC(=O)c2cccc(C(=O)N/N=C/c3ccc(OC)cc3)n2)cc1 | 3 | 0.5 | 9% | 1% | -8% | -15% | -20%
CC1CCc2sc(NC(=S)NC(=O)c3ccccc3)c(C#N)c2C1 (stereo unspecified) | -22 | 0.1 | 6% | 2% | ? | -22% | -2%
CC(C)(C)C(=O)NC(NC(=S)Nc1sc2c(c1C#N)CCCC2)C(Cl)(Cl)Cl (stereo unspecified) | -20 | -0.3 | 19% | -10% | -30% | -2% | 44%
CCn1c(/C=N/NC(=O)c2ccc(OC)cc2)nc2ccccc21 | -12 | -0.3 | -2% | -3% | 2% | 1% | .
Nc1c(Cl)cc(C2=NCCn3c2c2ccc([N+](=O)[O-])cc2[n+]3[O-])cc1Cl | -14 | 0.6 | -12% | -12% | -4% | 1% | ?
CNc1nc(-c2ccccc2)c2sccc2n1 | 0 | 0.2 | -22% | 0% | -2% | 8% | -14%
Cc1cccc(NC(=O)CN2C(=O)N/C(=C\c3cccn3-c3cccc(C(=O)O)c3)C2=O)c1 | -14 | 0.2 | 8% | -3% | -8% | ? | -3%
Cc1[nH]c2ccccc2c1C(=O)C(=O)N1CCOCC1 | 0 | -4.2 | -2% | -8% | -2% | 21% | -11%
CC1(C)NC(=O)N(CNc2cc(Cl)ccc2Cl)C1=O | 0 | -1.5 | 6% | 8% | -10% | -19% | 29%
O=C(CSc1ccc(Cl)cc1)NNC(=O)c1cccnc1 | 7 | -2.2 | 8% | -6% | -18% | 9% | 21%
Cc1cccc(C)c1Nc1nnc(SCC(=O)NC(=O)c2cccn2C)s1 | -30 | -0.9 | -7% | 4% | -12% | ? | .
COc1ccc(C(=O)NNC(=O)Cc2nc3ccccc3n2C)cc1 | 1 | 1.3 | 5% | -4% | 3% | -5% | 0%
CCc1nc2n[nH]c(N)c2c2c1CCCC2 | 0 | 0.4 | -2% | 10% | -7% | 5% | -3%
Cc1cc2oc(=O)cc(CN3CCN(S(=O)(=O)c4cccs4)CC3)c2cc1C | 2 | -1.1 | 3% | -20% | -5% | -2% | -18%
Cc1ccc(OCCOCCN(C)C)c(Cl)c1 | 1 | 0.3 | 6% | ? | -4% | ? | .
CC1=C(C(=O)Nc2cccnc2)C(c2ccncc2)n2nnnc2N1 (stereo unspecified) | . | -0.4 | -1% | 15% | 2% | 15% | 14%
CC(O)CNCCCOc1ccc(Cl)cc1C(C)(C)C (stereo unspecified) | 30 | -4.8 | -9% | -11% | -6% | -16% | 8%
O=c1c(/C=N/O)c(Nc2ccccc2)nc2ccccn12 | . | 1.9 | -4% | 5% | -2% | 13% | 27%
O=C(c1cc(COc2ccc(F)c(F)c2)on1)N1CCN(C/C=C/c2ccccc2)CC1 | 10 | -4.3 | -11% | -6% | -8% | -27% | 23%
Cc1cc(C)c2nc(C)cc(N/N=C/c3ccc(O)cc3)c2c1 | -15 | -0.6 | 11% | -9% | -21% | -28% | 44%
Cc1ccc2cc(C=C(C#N)C#N)c(N3CCCCC3)nc2c1 | . | -0.2 | 20% | -65%[inhibitor] | ? | 27% | -1%
COc1cccc(NC(=O)Nc2c(C)n(C)n(-c3ccccc3)c2=O)c1 | 0 | -1.6 | 0% | -2% | -2% | -9% | -7%
CCCCOc1ccc(C(=O)N2CCC(C)CC2)cc1 | 11 | -0.3 | -6% | -28% | -10% | 4% | 36%
CCC1(C)Cc2c(sc(NC(=S)NC(=O)c3ccccc3)c2C#N)CO1 (stereo unspecified) | ? | -0.7 | 7% | 3% | 13µM* | 6% | 11%
Cc1cc(C)c2c(CC(=O)NN(C)C)coc2c1 | 3 | -2.1 | -3% | -2% | 0% | -19% | -19%
CN(C)CCNC(=O)CCCNC(=O)Cn1cnc2sc3c(c2c1=O)CCCC3 | . | 1.7 | 6% | 11% | -3% | -8% | 6%
CC(C)c1nc2n[nH]c(N)c2c2c1CSC(C)(C)C2 | 2 | -2.2 | 1% | 4%[9.22 µM] | -5% | -9% | -25%

Five compounds from above with just Abeta rescue and IL2 activator.
Molecule | Abeta rescue | IL2 activator
COc1cccc(NC(=O)Nc2c(C)n(C)n(-c3ccccc3)c2=O)c1 | -2% | -1.6
CCCCOc1ccc(C(=O)N2CCC(C)CC2)cc1 | -28% | -0.3
CCC1(C)Cc2c(sc(NC(=S)NC(=O)c3ccccc3)c2C#N)CO1 (stereo unspecified) | 3% | -0.7
Cc1cc(C)c2c(CC(=O)NN(C)C)coc2c1 | -2% | -2.1
CN(C)CCNC(=O)CCCNC(=O)Cn1cnc2sc3c(c2c1=O)CCCC3 | 11% | 1.7
